Screening data as filed in PubChem BioAssay.
Six1-Eya2 blk: blocks human Six1 binding to Eya2. AID 651725. AlphaScreen GST-Six1/His-Eya2 binding, biochemical; active compounds read low; control for the full effect not named in the record. activity change, % (test concentration not listed). hit rate 0.56% among 360,000. Q15475+O00167; in the data active = activity change below about -65%; inconclusive = about -30% to -65%; inactive = above about -30%; note: % is set by controls: 0 for no effect and ±100 for the full control effect
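GST-Six1 + His-Eya2 (5X stock: 250/500 nM); Tris pH 8.0, 300 mM NaCl, 0.05% BSA, 0.02% Tween 20; GSH donor/Ni acceptor beads; 1 h 37 °C dark; AlphaScreen readout.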
D2 agonist: activates the human D2 dopamine receptor. P14416. DiscoveRx PathHunter D2 beta-arrestin, luminescence, 90 min; 100% = 57 uM dopamine signal. activation, % (no concentration beside the values). hit rate 0.084% among 360,000. AID 624465; in the data active = activation above about 40%; inconclusive = about 15% to 40%; inactive = below about 15%; note: compound concentration not given in the record; the text of the record calls up to 30% inactive
Target sequence (P14416 whole entry, looked up): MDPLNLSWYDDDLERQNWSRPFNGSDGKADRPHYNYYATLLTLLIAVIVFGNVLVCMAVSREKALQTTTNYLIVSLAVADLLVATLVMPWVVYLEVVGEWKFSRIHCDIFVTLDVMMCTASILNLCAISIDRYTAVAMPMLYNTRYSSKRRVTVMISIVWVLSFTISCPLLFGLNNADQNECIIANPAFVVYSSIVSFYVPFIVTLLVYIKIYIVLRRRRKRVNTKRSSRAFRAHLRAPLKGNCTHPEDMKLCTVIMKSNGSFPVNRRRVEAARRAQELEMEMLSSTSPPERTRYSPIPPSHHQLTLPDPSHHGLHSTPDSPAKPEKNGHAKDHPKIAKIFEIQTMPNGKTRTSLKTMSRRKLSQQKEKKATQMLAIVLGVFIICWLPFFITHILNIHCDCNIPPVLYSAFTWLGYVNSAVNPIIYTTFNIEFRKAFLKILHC
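Agonist mode: compounds alone added to overnight-plated D2 PathHunter cells for 90 min at 37 C, with 57 uM final dopamine (EC100) defining full response. Beta-arrestin recruitment detected by chemiluminescent reagent, read after 1 h at ambient temperature.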
TRPML1 agonist: agonists of human TRPML1 channel; TRPML1-expressing cells, Ca2+ dye fluorescence, FDSS; host cell line not named in the record; reference of the full effect not given here; activation, % (no concentration beside the values); hit rate 0.12% among 410,000; AID 624414; in the data active = activation above about 50%; inconclusive = about 30% to 50%; inactive = below about 30%; note: 0% is about no effect; the text of the record puts the active cut at 80%
Target sequence (Q9GZU1 whole entry, looked up): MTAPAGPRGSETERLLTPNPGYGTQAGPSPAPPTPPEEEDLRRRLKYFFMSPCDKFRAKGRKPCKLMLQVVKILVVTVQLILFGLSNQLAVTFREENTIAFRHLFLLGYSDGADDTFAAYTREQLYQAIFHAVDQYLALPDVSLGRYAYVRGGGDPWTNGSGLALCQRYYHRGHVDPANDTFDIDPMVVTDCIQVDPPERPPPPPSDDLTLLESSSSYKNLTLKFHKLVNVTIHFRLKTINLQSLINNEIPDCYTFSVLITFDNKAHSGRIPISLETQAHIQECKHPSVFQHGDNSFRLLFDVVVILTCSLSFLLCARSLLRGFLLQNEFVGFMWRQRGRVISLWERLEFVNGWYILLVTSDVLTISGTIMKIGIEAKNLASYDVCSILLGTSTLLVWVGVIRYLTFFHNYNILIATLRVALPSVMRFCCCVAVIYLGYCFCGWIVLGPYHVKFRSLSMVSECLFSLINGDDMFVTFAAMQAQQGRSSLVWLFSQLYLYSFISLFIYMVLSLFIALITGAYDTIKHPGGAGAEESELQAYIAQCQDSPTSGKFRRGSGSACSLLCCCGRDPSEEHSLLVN
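Agonist activity was taken from a 110 s kinetic Ca2+ dye read on the FDSS after pinning compounds onto TRPML1-DL cells. The cells were seeded at 1,500/well with Tet inducer, incubated about 16 h, then dye-loaded at room temperature.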
PINK1 expr mod: modulators of PINK1 expression. AID 624263. hit rate 0.2% among 410,000. PINK1 immunofluorescence, high-content cytometry, 24 h. Potency, µM (titrated, usually from 76.6 µM), without a hit: at the highest dose activation (PINK1 increase), most hits filed as activators; active = well fitted activation curve with a large enough effect; inconclusive = small, poorly fitted or top-dose-only effect; inactive = flat fitted curve, though single readings scatter; cell line not stated here;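 note: potency is the fitted concentration of half-maximal effect; % of control where 0% means no effect; nearly all actives have a fitted effect of over 65% in size; a mitochondrial uncoupler was the plate control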
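PINK1 protein level read as immunofluorescence by microplate cytometer in a fixed, stained stable cell line after 24 h exposure to five compound concentrations, with CCCP as control.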
TRPML1 inh: blocks the human TRPML1 channel | TRPML1-inducible cells, Ca2+ dye fluorescence, FDSS; active compounds read low; inhibition of EC80 agonist-evoked calcium signal | activity change, negative = inhibition, % (concentration not given with the values) | hit rate 0.02% among 390,000 | Q9GZU1; in the data active means activity change below about -50%; inconclusive means about -30% to -50%; inactive means above about -30%;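 note: stimulus is agonist 54-4 at its EC80 concentration; % is set by controls: 0 for no effect and ±100 for the full control effect; the text of the record puts the active cut at -80%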
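Calcium fluorescence in TRPML1-DL cells induced overnight with Tet: a 110 s read after compound pin addition, then a 110 s antagonist read after challenge with 54-4 at 4 uM final (EC80).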
CtBP-E1A blk: CtBP/E1A binding inhibition. AlphaScreen GST-E1A/His-CtBP binding, 1536-well; active compounds read low; control for the full effect not named in the record. hit rate 0.49% among 340,000. activity change, % (no concentration beside the values); in the data active means activity change below about -65%; inconclusive means about -30% to -65%; inactive means above about -30%; note: % is set by controls: 0 for no effect and ±100 for the full control effect
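GST-E1A and His-tagged CtBP (125 nM each as 5X stock) were preincubated with pin-transferred compound for 2 h at 37 °C in the dark, then glutathione donor and nickel acceptor beads were added for 1 h before AlphaScreen reading.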
* = called active by the depositor; ? = inconclusive; . = not tested or not shown; [ ] = remark or other dose.

The opening 3 records (preview)
SMILES	Six1-Eya2 blk	D2 agonist	TRPML1 agonist	PINK1 expr mod	TRPML1 inh	CtBP-E1A blk
Cc1cc(C)cc(N2C(=O)N(Cc3cc(=O)n4ccccc4n3)c3ccccc3S2(=O)=O)c1	.	.	-0.6	4.8%	19	.
Cc1cccc(C)c1NC(=O)CN(c1ccccn1)S(=O)(=O)c1ccc(F)cc1	-10	-5.3	-0.2	0.6%	4	-16
COc1cc(/C=N/NC(=O)c2ccncc2)ccc1OC(=O)c1ccccc1Cl	-4	-1.3	-0.1	3.8%	-11	-3

The whole of this part (from the top)
SMILES	Six1-Eya2 blk	D2 agonist	TRPML1 agonist	PINK1 expr mod	TRPML1 inh	CtBP-E1A blk
Cc1cc(C)cc(N2C(=O)N(Cc3cc(=O)n4ccccc4n3)c3ccccc3S2(=O)=O)c1	.	.	-0.6	4.8%	19	.
Cc1cccc(C)c1NC(=O)CN(c1ccccn1)S(=O)(=O)c1ccc(F)cc1	-10	-5.3	-0.2	0.6%	4	-16
COc1cc(/C=N/NC(=O)c2ccncc2)ccc1OC(=O)c1ccccc1Cl	-4	-1.3	-0.1	3.8%	-11	-3
CCC1=C(OC(=O)N(CC)CC)N2C(=O)OC(=NCc3ccccc3)[C@]2(C)[C@H]2C1=CC[C@H]1C(=O)N(CC)C(=O)[C@H]12	-8	1.9	2.1	-0.2%	-4	1
Cc1c(C=Nc2ccc(S(=O)(=O)CCO)cc2)c(O)[nH]c(=O)c1C#N	20	2.2	1.9	-1.1%	73	0
COc1ccccc1-c1c(C)oc2c(CN3CCCC(C)C3)c(O)ccc2c1=O (configuration not stated)	-3	-6.2	0.0	2.4%	12	-4
CC(Oc1ccc(F)cc1)c1nnc(SCC(=O)N(c2ccccc2)C2CCS(=O)(=O)C2)o1 (configuration not stated)	1	1.5	-0.2	0.9%	31	0
Cc1nc(N/N=C/c2ccc(O)cc2O)cc(N2CCOCC2)n1	-79*	13	0.0	-0.4%	18	-93*
NC(=O)NC(=O)COC(=O)CNS(=O)(=O)c1ccc(F)c(F)c1F	-1	-4.3	0.8	-0.3%	-20	-3
CC(CCc1ccccc1)NC(=O)c1ccccc1C(=O)O (configuration not stated)	11	0.7	-1.0	-1.3%	3	7
CCc1ccc(S(=O)(=O)NC(CC(=O)O)c2ccccc2)cc1 (configuration not stated)	6	-2.1	0.1	-5.6%[38.3 µM]	-14	8
O=C(N/N=C/c1ccccc1)c1cc(-c2ccc3c(c2)OCO3)n[nH]1	0	-1.5	-0.1	9.8%	20	0
Cc1c(C(=O)N2CCOCC2)sc(NC(=O)c2ccc([N+](=O)[O-])cc2)c1C#N	?	-0.9	-0.1	3.1%	38	-8
CCn1ncc(/C=C/C(=O)Nc2c(C)nn(Cc3ccc(Cl)cc3Cl)c2C)c1C	-16	0.0	0.8	8.9%[38.3 µM]	73	1
CCOc1ccc(S(=O)(=O)NCCC(=O)NCc2ccncc2)cc1	-1	-0.3	-0.1	0.8%	21	9
C=CCSc1nnc(NC(=O)CCNC(=O)c2ccccc2Cl)s1	-5	-2.7	-1.2	1.1%	-7	-1
Cc1ccc(-n2nc3c(=O)n(CC(=O)NCCC(C)C)nc(C)c3c2C)cc1	.	.	-0.2	-0.2%	-14	.
O=C(N/N=C\c1ccccc1F)c1ccc(-c2ccccc2)cc1	2	2.4	-0.1	9.7%	-7	6
CCN(CC(=O)Nc1cc(OC)ccc1OC)Cc1nc2ccccc2c(=O)[nH]1	-1	-0.5	-1.2	-0.1%	36	1
Cc1cc(C)n2nc(C(=O)Nc3ccc(S(=O)(=O)N(C)C)cc3)nc2n1	5	-2.4	0.1	-0.7%	19	4
CC1CCN(S(=O)(=O)c2ccc(C(=O)Nc3nnc(-c4ccco4)o3)cc2)CC1	?	-1.2	-0.2	0.8%	12	?
COc1ccc(N(CC(=O)NCc2ccc3c(c2)OCO3)S(=O)(=O)c2c(C)nn(C)c2C)cc1	1	-4.0	0.4	0.1%	19	9
CCn1cnc2c1c(=O)n(CC(=O)N1CCc3ccccc31)c(=O)n2Cc1ccccc1	-4	0.5	-0.1	-0.4%	-1	-3
CC1(C)CC(=O)C2=C(C1)NC(=O)CC2c1cc2c(cc1Br)OCO2 (configuration not stated)	12	0.5	0.9	-1.1%	5	1
CCN(CC)S(=O)(=O)c1ccc2c(c1)nc(CN(C)C(=O)Nc1ccc(Cl)cc1)n2C	.	.	-1.0	0.1%	-10	.
O=C(CCn1cccn1)Nc1ccc(Br)cc1F	.	.	0.9	-0.1%	-29	.
Cc1nn(CCO)c2ncc(C(=O)c3cc(F)ccc3O)cc12	4	-0.4	0.6	-0.9%	-21	-10
CCOC(=O)CC[C@H](NC(=O)Cn1cnc2c(NCc3ccccc3)ncnc21)C(=O)OCC	0	0.1	0.0	-0.3%	-12	-24
CC1(C(=O)NCc2cccs2)Cc2c(-c3ccccc3)ccnc2O1 (configuration not stated)	1	-5.3	-1.2	7.4%	.	3
CC(=O)N(c1cccc(C(F)(F)F)c1)c1nc(/C=C/C(=O)O)cs1	4	-0.1	-0.8	1.1%	-6	6
CCS(=O)(=O)c1nc(S(=O)(=O)c2ccc(C)cc2)c(NCCCN2CCOCC2)s1	0	-4.4	-0.8	0.7%	-3	1
COc1ccc(C(=O)Nc2ccccc2C(=O)N(Cc2ccco2)C(C(N)=O)C(C)C)cc1 (configuration not stated)	27	-1.3	0.9	-1.5%	-14	6
Cc1ccc(OCc2ccccc2C)c([N+](=O)[O-])n1	12	-4.2	-0.4	0.4%	-2	0
CCC(C(=O)Nc1ccc2c(c1)OCCO2)n1c(=O)[nH]c2ccccc2c1=O (configuration not stated)	20	-1.4	0.2	0.3%	-15	7
COc1ccc(C2c3c(oc4ccccc4c3=O)C(=O)N2Cc2ccncc2)cc1OC (configuration not stated)	0	-3.2	-0.3	1.3%	-6	3
Cc1ccc(S(=O)(=O)NCC2CCC(C(=O)N(C)Cc3ccccc3)CC2)cc1 (configuration not stated)	.	.	0.4	-1.0%	-22	.
CCOC(=O)C(N)CSC1CC(=O)N(c2ccc(OC)cc2)C1=O (configuration not stated)	1	-5.2	0.6	2.5%	1	-4
CN(C)S(=O)(=O)c1cc(NC(=O)COC(=O)Cc2ccc(Br)cc2)ccc1Cl	-1	-4.8	-0.9	1.3%	-8	-2
Cc1ccc(-c2cn3c(n2)sc2cc(C(=O)NCCCN4CCCCC4)ccc23)cc1	.	.	0.8	0.8%	20	.
Cc1oc2ccc(OC(=O)N3CCOCC3)cc2c1C(=O)OC(C)C	5	0.1	-0.2	-3.9%[38.3 µM]	-9	4

Fetched by structure from the entries so far, three records:
SMILES	Six1-Eya2 blk	D2 agonist	TRPML1 agonist	PINK1 expr mod	TRPML1 inh	CtBP-E1A blk
COc1ccc(C(=O)Nc2ccccc2C(=O)N(Cc2ccco2)C(C(N)=O)C(C)C)cc1 (configuration not stated)	27	-1.3	0.9	-1.5%	-14	6
Cc1oc2ccc(OC(=O)N3CCOCC3)cc2c1C(=O)OC(C)C	5	0.1	-0.2	-3.9%[38.3 µM]	-9	4
Cc1ccc(S(=O)(=O)NCC2CCC(C(=O)N(C)Cc3ccccc3)CC2)cc1 (configuration not stated)	.	.	0.4	-1.0%	-22	.

Other entries follow.
SMILES	Six1-Eya2 blk	D2 agonist	TRPML1 agonist	PINK1 expr mod	TRPML1 inh	CtBP-E1A blk
COc1ccc(OC)c(NC(=O)C2CC(=O)N(CCc3ccc(F)cc3)C2)c1 (configuration not stated)	-3	-6.2	-0.1	-0.6%	12	-30
COc1ccc(Cl)cc1N1C(=O)CC(N2CCN(S(=O)(=O)c3ccccc3F)CC2)C1=O (configuration not stated)	6	2.8	1.3	-0.7%	6	0
O=C(CSc1nnc(-c2ccccc2)n1-c1ccccc1)c1ccc[nH]1	-2	0.6	1.2	7.4%	26	2
CCO[C@@H]1OC(C(=O)Nc2ccccc2)=C[C@H](c2ccc3c(c2)OCO3)[C@H]1CCCO	-2	2.9	-0.5	-0.2%	2	-1
O=S(=O)(c1cccc(F)c1)N1CCN(Cc2cc3c(cc2Br)OCCO3)CC1	-9	-3.6	0.0	0.3%	9	0
O=S(=O)(Nc1ccc2c(c1)nc1n2CCN(Cc2ccccc2)C1)c1ccc(F)cc1	-1	0.5	0.0	2.4%	-9	-7
COc1ccc(CN2CCSCC2)cc1C	-2	-1.2	0.8	.	16	2
CCCNC(=O)C1(C)CCCN(C(=O)COc2ccc(Cl)cc2Cl)C1 (configuration not stated)	3	-7.0	-0.1	1.4%	11	-3
CC1(C)COC(c2cccc(C3=NC(C)(C)CO3)n2)=N1	2	0.3	0.9	2.4%	14	-1
Cc1ccccc1CSc1nnc(NC(=O)C2COc3ccccc3O2)s1 (configuration not stated)	-2	-1.4	-0.3	2.9%[38.3 µM]	4	-8
COc1ccc(CCN(C)C(=O)CN2C(=O)NC3(CCCCC3C)C2=O)cc1OC (configuration not stated)	1	-4.5	-0.5	?	-7	6
CC(=O)Nc1ccc(N2C(=O)CC(Sc3nccc(C)n3)C2=O)cc1 (configuration not stated)	8	-1.4	0.1	-0.4%	8	-19
CCOC(=O)CN(C(=O)CSc1nnc2c(n1)[nH]c1ccc(OC)cc12)c1ccc(F)cc1	?	0.0	2.0	2.5%	-7	?
COC(=O)c1ccc(C[n+]2ccccc2)cc1	0	1.6	0.1	0.6%	5	-5
COc1cc(/C=C/C(=O)N2CCN(Cc3ccccc3)CC2)cc(OC)c1OC	-1	1.5	0.0	-0.2%	-1	.
CCOC(=O)c1c(C)oc2ncnc(Nc3cc(Cl)ccc3OC)c12	.	.	0.2	0.9%	-11	.
CCOCCCNC(=O)c1cc(-c2ccc(Br)s2)nc2ccccc12	9	-2.9	-0.7	3.2%	-9	18
CC(C)(C)C(=O)Nc1cc(NC(=O)C(C)(C)C)cc(C(=O)Nc2c[nH]c(=O)[nH]c2=O)c1	5	-1.3	0.3	0.8%	17	2
Cc1oc(-c2cccc(Cl)c2)nc1CS(=O)(=O)CC(=O)NC(C)CCc1ccccc1 (configuration not stated)	.	.	3.0	1.5%	16	.
COc1ccc(-c2noc3c2-c2nc(-c4ccccc4F)sc2CC3)cc1	0	5.6	-1.0	0.4%	-10	0
CCN(CCCNS(=O)(=O)c1ccc2c(c1)CCN2C(C)=O)c1cccc(C)c1	-23	-0.5	0.4	0.1%	58	-17
COc1ccc(-c2c(C(F)(F)F)oc3cc(OCC(=O)Nc4ccccc4C(F)(F)F)ccc3c2=O)cc1OC	1	-1.1	0.0	-0.5%	-6	-1
N/C(=N\OC(=O)CCC1CCCC1)c1ccc(Br)cc1	26	-0.5	-0.7	7.9%	1	10
O=C(NCCN1CCOCC1)c1ccc2c(c1)N(Cc1ccc(Cl)cc1)C(=O)CS2	0	-2.0	0.5	-0.8%	15	1
COc1ccc(NC(=O)NC(C(F)(F)F)C(F)(F)F)cc1	8	-2.3	1.1	-0.4%	-2	2
CCOC(=O)c1ccc(Oc2cn[nH]c2-c2ccc(OCC(=O)NN)cc2O)cc1	-2	9.1	-0.1	-0.6%	-15	.
COCCCNC(=O)Cn1cc(C(C)=O)c2ccccc21	-1	-0.1	0.9	6.9%[38.3 µM]	7	-4
O=C(CSc1ccc2nnc(-c3ccccn3)n2n1)NCC1CCCO1 (configuration not stated)	-27	0.0	-1.0	2.2%	11	-28
